Screening results as filed in PubChem.
Rango complex inh: inhibitors of Rango-importin beta complex formation; Q14974; Rango CFP/YFP FRET sensor + importin beta, 45 min; Potency, µM (titrated, usually from 92.2 µM), for inactives: top-dose inhibition of complex formation; 0.031% of 340,000 active; AID 540263; active = rising FRET ratio curve, often small or poorly fitted; inconclusive = mostly compound fluorescence or quenching in the first reads; inactive = flat curves in all reads;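 further: potency means the concentration at half of the fitted maximal effect; 0% = DMSO wells and 100% = buffer wells lacking importin beta; nearly all actives have a fitted effect of over 15% in size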
Target sequence (Q14974 whole entry, looked up): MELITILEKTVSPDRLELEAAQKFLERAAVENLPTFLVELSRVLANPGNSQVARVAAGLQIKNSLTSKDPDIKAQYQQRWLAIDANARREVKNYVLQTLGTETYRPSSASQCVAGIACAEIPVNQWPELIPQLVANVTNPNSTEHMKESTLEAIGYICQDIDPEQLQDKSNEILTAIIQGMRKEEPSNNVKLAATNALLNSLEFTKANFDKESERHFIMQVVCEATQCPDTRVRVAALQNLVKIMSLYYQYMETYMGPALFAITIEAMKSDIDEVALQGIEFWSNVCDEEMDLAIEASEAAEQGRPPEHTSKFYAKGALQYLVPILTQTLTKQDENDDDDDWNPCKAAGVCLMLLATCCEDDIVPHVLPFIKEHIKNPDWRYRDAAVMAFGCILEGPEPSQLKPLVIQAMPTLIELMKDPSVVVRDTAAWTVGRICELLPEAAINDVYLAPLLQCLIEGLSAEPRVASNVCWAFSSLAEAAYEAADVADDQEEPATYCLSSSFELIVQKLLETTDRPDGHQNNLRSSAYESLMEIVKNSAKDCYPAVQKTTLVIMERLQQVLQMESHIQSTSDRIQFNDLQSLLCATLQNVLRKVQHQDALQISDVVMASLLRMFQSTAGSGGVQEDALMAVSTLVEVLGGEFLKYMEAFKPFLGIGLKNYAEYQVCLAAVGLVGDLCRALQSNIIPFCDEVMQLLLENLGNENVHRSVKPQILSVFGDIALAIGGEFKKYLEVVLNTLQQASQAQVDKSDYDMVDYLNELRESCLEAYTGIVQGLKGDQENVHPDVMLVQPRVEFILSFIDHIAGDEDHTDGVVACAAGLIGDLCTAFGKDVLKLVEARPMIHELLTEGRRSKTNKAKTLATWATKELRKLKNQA
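Inhibition scored from the CFP 486 nm/YFP 530 nm FRET ratio 45 min after adding 0.125 microM importin beta to 50 nM Rango biosensor preincubated 5 min with compound (room temperature, PBS with DTT, Tween-20, BSA). No-importin wells as positive control.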
Rango release inh: inhibitors of RanGTP-induced Rango-importin beta complex dissociation. Potency, µM (doses to about 46.1 µM), without a hit: top-dose activity change, negative = inhibition. O95149+P62826. Biochemical FRET Rango-importin beta, RanGTP-induced dissociation. 0.071% of 340,000 active. AID 540253; active means falling FRET ratio curve, often poorly fitted, with flat reads before Ran was added; inconclusive means other falling curves, or compound fluorescence or quenching; inactive means flat or rising ratio curve;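 further: potency means the concentration at half of the fitted maximal effect; % of control where 0% means no effect; nearly all actives have a fitted effect of over 45% in size; -100% = wells without RanGTP and RCC1; the record marks most hits as doubtful in a second field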
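Compounds preincubate 5 min with complex of recombinant Rango and importin beta in PBS with 1 mM DTT. Ran (0.6 uM) loaded with 2 mM GTP plus 0.2 uM RCC1 starts dissociation; FRET is recorded 45 min later.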
miR-21 reporter: miR-21 reporter, rising signal; HeLa miR-21 FLuc reporter, luciferase, 48 h; Potency, µM (highest dose often 38.3 µM), for the others: at the highest dose reporter change, positive = more light; 340,000 tested, under 10 active; AID 2288; active = well fitted rising curve with a large enough effect; inconclusive = small, poorly fitted or top-dose-only effect; inactive = no such curve, though single readings can be large or run the other way;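 further: % of control where 0% means no effect; miR-21 action dims this reporter so a rising signal means less miR-21 action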
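HeLa cells endogenously expressing miR-21, stably carrying CMV-driven firefly luciferase with a downstream miR-21 binding site, 2000 cells/well. Titrations up to approximately 40 uM, 48 hours; luciferase luminescence read.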
GLA inh pH 4.5: inhibitors of human alpha-galactosidase A at pH 4.5 | 230,000 tested, under 10 active | purified enzyme, 4-MU-alpha-Gal fluorescence, pH 4.5 | P06280 | activity change, negative = inhibition, % at 105 µM; inconclusive = small, poorly fitted or top-dose-only inhibition, or a rising curve; inactive = flat fitted curve, though single readings scatter; no compound was filed as active;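 further: 0% = full activity with enzyme and -100% = basal without enzyme; dose as in the result columns while the protocol names 77 µM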
Starred values were filed as active, the others as inactive; ? = inconclusive; · = not tested or not shown; & = joins results of further samples; [ ] = remark or other dose. A portion of the library, so the mix of outcomes need not match the whole.

#	miR-21 reporter	Rango release inh	GLA inh pH 4.5	Rango complex inh	Compound
1	16.4%	?	3.2	2.3%	CCN(CC)S(=O)(=O)c1cccc(NC(=O)c2cc3ccccc3o2)c1
2	7.4%	11.5%	-7.1	-0.5%	CN(C(=O)CC1C(=O)NCCN1CC(c1ccccc1)c1ccccc1)C(C1CC1)C1CC1 (stereo not drawn)
3	-3.0%	12.1%	-8.6	-4.4%	CCOC(=O)CCNC(C)C1COc2ccccc2O1 (stereo not drawn)
4	-1.6%	-3.1%	·	0.1%	COc1cccc2c1OCC1COc3c(c(=O)n(C)c(=O)n3C)C21 (stereo not drawn)
5	-4.7%	-2.1%	-2.7	-3.7%	CCCc1nc(SCC(=O)Nc2ccc(N3CCOCC3)cc2)c2ccccc2n1
6	·	-11.2%	·	-0.6%	COc1cc2c(c(OC)c1OC)-c1ccc(SC)c(=O)cc1C(NC(=O)C(F)(F)F)CC2 (stereo not drawn)
7	1.9%	11.1%	-4.5	0.5%	O=C(O)C1(S(=O)(=O)CCC(F)=C(F)F)CC1
8	16.2%	4.2%	·	1.8%	Cc1ccc(CN(Cc2ccccn2)C(=O)Nc2ccc(C)c(C)c2)cc1

The list goes on:
#	miR-21 reporter	Rango release inh	GLA inh pH 4.5	Rango complex inh	Compound
9	-1.5%	0.9%	-9.6	-1.1%	CC(=O)Nc1ccc(C(=O)NCC(=O)OCc2ccccc2F)cc1
10	-0.6%	7.5%	4.1	-1.2%	CCN(CC)CCN1C(=O)c2ccccc2NC1c1ccc(Br)cc1 (stereo not drawn)
11	·	10.0%	·	3.7%	CN(C(=O)c1cccc(NC(=O)Cc2ccc(NC(=O)C3CCN(C(=O)C4CC4)CC3)cc2)c1)C1CCCCC1
12	9.8%	-11.3%	-0.2	-3.2%	CCCSC1=C(C#N)C(c2ccc(OC)cc2)C2=C(CC(C)(C)CC2=O)N1 (stereo not drawn)
13	·	-4.8%	·	-4.2%	C=CCNc1nnc(SCC(=O)N2CCC(C(N)=O)CC2)s1
14	·	1.7%	·	-1.6%	CCOc1ccc(-n2cc(C(=O)Nc3cccc(C)n3)c3cc(OC)c(OC)cc3c2=O)cc1
15	-11.5%	8.6%	·	-1.4%	CCOc1ccc(/C(O)=C2/C(=O)C(=O)N(c3ccccn3)C2c2ccc(C)cc2)c(C)c1 (stereo not drawn)
16	·	20.1%	·	-2.2%	C#CCOCCOCCOCCNc1nc(N2CCN(C(=O)[C@H]([C@@H](C)CC)n3cc(CCCCN)nn3)CC2)nc(N2CCN(C(=O)[C@H](CCCCN)n3cc(CCC(=O)O)nn3)CC2)n1

Remaining list, next part.
#	miR-21 reporter	Rango release inh	GLA inh pH 4.5	Rango complex inh	Compound
17	-0.9%	-20.9%	-0.4[21.1 µM]	-5.2%	Cc1sc2ncn(CC(=O)NCCCOC(C)C)c(=O)c2c1S(=O)(=O)N1CCN(c2ncccn2)CC1
18	·	11.3%	·	-1.4%	Cc1nnc(SCC(=O)N(C)c2ccccc2)n1-n1cccc1
19	-6.9%	-5.9%	-0.5	2.5%	CCN1CCN(c2nc3sc4c(c3c(=O)n2-c2ccc(OC)cc2)CCCCC4)CC1
20	-7.1%	-11.6%	-0.9	0.8%	NS(=O)(=O)c1ccc(N/N=C/c2cn(-c3ccccc3)nc2-c2ccccc2)c([N+](=O)[O-])c1
21	-4.4%	-0.8%	-16.5	0.3%	O=C(NCC1CCCO1)C1c2ccccc2C(=O)N1C1CCCCCC1 (stereo not drawn)
22	-4.8%	43.9%	·	0.9%	O=C(Nc1ccccc1Cl)C1CCCN1C(=O)OCc1ccccc1 (stereo not drawn)
23	-0.5%	-1.4%	-19.9	-2.3%	CCc1nc(C)cn1S(=O)(=O)c1cc(Cl)c(OC)cc1Cl
24	2.1%	11.7%	0.7	5.4%	CCCCNS(=O)(=O)/C=C/c1ccccc1

Continued:
#	miR-21 reporter	Rango release inh	GLA inh pH 4.5	Rango complex inh	Compound
25	-0.1%	-7.0%	-0.3	1.9%	CCN(CC)c1nc(=S)nc(NC(C)(C)C)[nH]1
26	·	-8.6%	·	?	CC(=O)C[C@H](O)CC(=O)[C@@H]1OC(=O)[C@H](C)C/C=C\Cc2ccccc21
27	-31.7%	10.5%	-9.4	0.5%	c1ccc(COc2cccc(CNCc3cccs3)c2)cc1
28	·	4.8%	·	0.7%	CC1CN(S(=O)(=O)c2cccc(C(=O)Nc3ccc(S(=O)(=O)NC4=NCCCCC4)cc3)c2)CC(C)O1 (stereo not drawn)
29	·	12.2%	·	3.7%	CC1CC(=O)N(CCc2ccccc2)C(=O)C1
30	-6.3%	6.3%	1.4	-2.9%	Cc1nn(CC(=O)N2CCOCC2)c(=O)c2ccccc12
31	-2.6%	-16.7%	-15.6	?	O=C(c1ccc(-n2cccn2)cc1)N1CCc2c([nH]c3ccccc23)C1c1ccccn1 (stereo not drawn)
32	·	-17.7%	·	0.7%	O=C(Nc1cccc(S(=O)(=O)N2CCCCC2)c1)c1ccco1

A draw from above in order of molecular weight, high to low:
#	miR-21 reporter	Rango release inh	GLA inh pH 4.5	Rango complex inh	Compound
31	-2.6%	-16.7%	-15.6	?	O=C(c1ccc(-n2cccn2)cc1)N1CCc2c([nH]c3ccccc23)C1c1ccccn1 (stereo not drawn)
32	·	-17.7%	·	0.7%	O=C(Nc1cccc(S(=O)(=O)N2CCCCC2)c1)c1ccco1
27	-31.7%	10.5%	-9.4	0.5%	c1ccc(COc2cccc(CNCc3cccs3)c2)cc1
30	-6.3%	6.3%	1.4	-2.9%	Cc1nn(CC(=O)N2CCOCC2)c(=O)c2ccccc12

Further records:
#	miR-21 reporter	Rango release inh	GLA inh pH 4.5	Rango complex inh	Compound
33	-14.0%	0.7%	2.4	0.9%	O=[N+]([O-])c1ccc(Cl)cc1Sc1ccccn1
34	-4.8%	·	6.3	·	O=C1c2ccccc2C(=O)C1C1=Nc2ccccc2NC(c2ccccc2)C1 (stereo not drawn)
35	-39.2%	0.3%	6.3	-1.5%	O=C(CC1SCCNC1=O)Nc1ccc(Cl)cc1 (stereo not drawn)
36	-4.6%	33.5%	1.5	-1.2%	CCOc1ccc(C(=O)N(C)C2CCS(=O)(=O)C2)cc1 (stereo not drawn)
37	-2.8%	-13.8%	-8.0	6.7%	COc1ccc(Cc2nnc(SCC(=O)NCCc3ccccc3)o2)cc1
38	-6.7%	-2.1%	-11.5	-2.5%	CC1=C(C(=O)OC2CCCCC2)C(c2cccs2)n2c(nc3ccccc32)N1 (stereo not drawn)
39	?	15.8%	-6.4	-2.3%	Cc1ccc(C)c(N2CCN(c3ccncc3N)CC2)c1
40	-14.3%	-6.0%	8.3	0.8%	CCN(CCn1cccn1)Cc1nc(-c2ccccc2)no1

Carrying on:
#	miR-21 reporter	Rango release inh	GLA inh pH 4.5	Rango complex inh	Compound
41	-1.3%	·	-2.4&-29.1	·	Cn1c(=O)c(C(=O)COC(=O)c2cc(-c3ccccc3)nc3ccccc23)c(N)n(Cc2ccccc2)c1=O
42	·	14.4%	·	0.7%	CC1CCN(C(=O)COC(=O)c2ccccc2C(=O)c2ccccc2)CC1
43	-17.4%	-8.8%	-16.8	0.1%	CCc1cccc2c(C(=O)COC(=O)c3c(C)noc3C)c[nH]c12
44	-0.1%&-0.5%	-7.6%	·	0.8%	CCOC(=O)CSc1nc2ccccc2n2c(C)nnc12
45	-0.2%	14.6%	4.0	-1.6%	Cc1cc(C)cc(OCC(=O)OCC(=O)N2CC(=O)Nc3ccccc32)c1
46	-5.0%	3.5%	·	-1.5%	Cc1ccc(N2Cc3ccccc3C2=O)cc1
47	-4.8%	22.3%	-5.5	-3.1%	COc1ccc(-n2c(C)cc(-c3csc(N)n3)c2C)cc1
48	-9.7%	-2.7%	-5.0	-5.1%	Cc1nc(SCC(=O)N(C)C2CCCCC2)[nH]c(=O)c1Cc1ccccc1

The list goes on.
#	miR-21 reporter	Rango release inh	GLA inh pH 4.5	Rango complex inh	Compound
49	-7.2%	-10.5%	·	5.3%	COc1ccccc1Nc1nc(C)cc(C)n1
50	-8.2%	-12.0%	-4.3	0.4%	CCOc1ccc2nc(N3CCC(C(=O)N4CCN(C(=O)c5ccco5)CC4)CC3)sc2c1
51	-24.8%	?	8.8	?	CNS(=O)(=O)c1cccc(C(=O)OCC(=O)Nc2ccc(-c3nc4ccc(C)cc4s3)cc2)c1
52	-2.4%	18.8%	·	-0.8%	O=C(NC1CCCC1)C(c1ccc(F)cc1)N(C(=O)c1csnn1)c1ccccc1F (stereo not drawn)
53	-3.2%	3.0%	2.2	-0.5%	Cc1nn(C)c(C)c1S(=O)(=O)N(CC(=O)NCc1cccs1)c1ccc(C(C)C)cc1
54	-2.0%	-11.9%	-3.4	1.3%	COC(=O)c1c(C(=O)OC)c(C)n(Cc2ccco2)c1C
55	2.1%	13.1%	-9.3	-2.4%	Fc1ccc(-n2c(Cn3nnc4ccccc43)n[nH]c2=S)cc1
56	-4.5%	9.8%	-0.4	-1.1%	CSc1ccc(CNCCCN(C)C)cc1

Continuation.
#	miR-21 reporter	Rango release inh	GLA inh pH 4.5	Rango complex inh	Compound
57	-2.2%	2.3%	·	0.4%	CCOc1ccc(-c2n[nH]c(=S)n2Cc2ccccc2)cc1
58	-0.9%	?	?	?	CCOC(=O)c1cc2c(=O)n3ccccc3nc2n(CCCOC)c1=NC(C)=O
59	·	0.6%	·	-0.8%	Cc1ccccc1SCC(=O)OCC(=O)N(C)c1c(N)n(Cc2ccccc2)c(=O)[nH]c1=O
60	-26.3%	15.7%	6.2	-1.1%	CC1CCC(NC(=S)NCCN(C)C)CC1 (stereo not drawn)
61	-0.3%	4.6%	·	3.8%	COc1ccc(C(=O)NC(C)c2nnc(SCC(=O)NC3CCCCC3)n2C)cc1 (stereo not drawn)
62	-3.6%	9.3%	4.5	2.6%	Cc1ccc(CNC(=O)CS(=O)(=O)CC(=O)O)cc1
63	?	?	-4.9	-6.2%	CCc1cccc2c(C(=O)COC(=O)c3nn(C)c(=O)c4ccccc34)c[nH]c12
64	·	-9.0%	·	-2.5%	CCOc1ccc(NC(=O)CN(C)C(=O)c2ccc(COc3ccccc3)o2)cc1OCC

Entries of single compounds from above:
Results for `Cc1nn(C)c(C)c1S(=O)(=O)N(CC(=O)NCc1cccs1)c1ccc(C(C)C)cc1` : miR-21 reporter = -3.2%; Rango release inh = 3.0%; GLA inh pH 4.5 = 2.2; Rango complex inh = -0.5%
Results for `COc1ccccc1Nc1nc(C)cc(C)n1` : miR-21 reporter = -7.2%; Rango release inh = -10.5%; GLA inh pH 4.5 = ·; Rango complex inh = 5.3%
Results for `Cc1nc(SCC(=O)N(C)C2CCCCC2)[nH]c(=O)c1Cc1ccccc1` : miR-21 reporter = -9.7%; Rango release inh = -2.7%; GLA inh pH 4.5 = -5.0; Rango complex inh = -5.1%

Just miR-21 reporter and Rango release inh, for some of the entries so far:
cpd	SMILES	miR-21 reporter	Rango release inh
60	CC1CCC(NC(=S)NCCN(C)C)CC1 (stereo not drawn)	-26.3%	15.7%
61	COc1ccc(C(=O)NC(C)c2nnc(SCC(=O)NC3CCCCC3)n2C)cc1 (stereo not drawn)	-0.3%	4.6%

Further records follow.
#	miR-21 reporter	Rango release inh	GLA inh pH 4.5	Rango complex inh	Compound
65	·	17.5%	·	3.9%	COc1ccc(/C=C/C(=O)OCC(=O)NC2CCCC(C)C2C)c(OC)c1 (stereo not drawn)
66	0.5%	0.9%	·	-0.2%	Cc1cc(NC(=O)CCC(=O)N(Cc2ccccc2)C(C(=O)NC2CCCC2)c2ccco2)no1 (stereo not drawn)
67	-6.2%	-1.2%	·	?	O=C(O)CNC(=O)c1ccc(NC(=O)/C(=C/c2cccc([N+](=O)[O-])c2)NC(=O)c2ccco2)cc1
68	0.0%	-16.4%	-4.8	1.4%	O=C1CC(c2ccc3c(c2)OCO3)c2cc3c(cc2N1)OCCO3 (stereo not drawn)
